# BmaI1 – BmaI1 acyl-homoserine lactone synthase inhibition – biochemical, fluorescence intensity, with counterscreen (AID 720554). BmaI1 enzyme assay, fluorescence intensity; stronger effect = higher value; test concentration not given here; a few actives read low; strong numbers were not always called active. inhibition, %. actives 0.4% (n = 12,000);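 active = both replicates within 2 robust z-scores of the inhibited control and a quiet counterscreen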;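 note: 0% = uninhibited enzyme and 100% = inhibited control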
# BmaI1 counterscreen – further read-out of BmaI1, marked with its call; inhibition, %; measured here: counterscreen; design of the counterscreen not given here;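 first of two replicates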
# Numbers without * were called inactive. These rows are one share of the data; the hit share may differ from the screen's.
item	SMILES	BmaI1	BmaI1 counterscreen
1	CCN(CC)S(=O)(=O)c1ccc2c(c1)nc(SCC(=O)NC1CC1)n2-c1ccccc1OC	12	0
2	N#Cc1ccsc1NC(=O)COc1ccc(-c2nnco2)cc1	36	10
3	CON=C(C(=O)N[C@@H]1C(=O)N2C(C(=O)O)=C(COC(N)=O)CS[C@H]12)c1ccco1	10	15
4	O=C(COC(=O)C1CCN(S(=O)(=O)c2ccc3c(c2)OCCO3)CC1)Nc1cc(C(F)(F)F)ccc1Cl	18	14
5	Cc1cnc(C(=O)OCc2ccc(Br)cc2)cn1	0	0
6	CC1=NN(c2ccc(Cl)cc2)C(=O)C12Cc1c(C)nn(-c3ccccc3)c1N1CCCC12 (stereo not drawn)	3	8
7	COc1ccc(S(=O)(=O)N(C)S(=O)(=O)c2ccc3ccccc3c2)cc1	12	8
8	CC(C)(C)c1ccccc1OCCCCCn1ccnc1	16	6
9	Cc1noc(C)c1CSc1cc(C)c2ccccc2n1	9	-1
10	Cc1cc(-n2c(C)cc(C(=O)CSCc3ccccc3F)c2C)no1	2	5
11	O=C(Nc1ccc2[nH]c(=O)[nH]c2c1)c1ccc2c(=O)n3c(nc2c1)CCCCC3	16	28
12	C=CCn1c(C)cc(C(=O)CN2C(=O)NC(CCSC)C2=O)c1C (stereo not drawn)	22	6
13	CC(C)Cn1c(SCn2nnc3ccccc3c2=O)nnc1-c1ccco1	3	0
14	CC(OC(=O)c1ccccc1)C(=O)NCc1ccco1 (stereo not drawn)	9	8
15	CC(=O)NC(Cc1c[nH]c2ccccc12)C(=O)N1CCN(S(=O)(=O)c2ccccc2)CC1 (stereo not drawn)	2	-1
16	COc1ccc(NS(=O)(=O)c2cccc(-c3nnc4n3CCCCC4)c2)cc1	5	6
17	O=C(c1cn(-c2ccccc2)nc1-c1cccs1)N1CCN(c2ccccc2)CC1	18	1
18	O=C(CSc1nnc(-c2ccccc2Br)o1)NC(=O)NC1CCCC1	12	2
19	CC1CCCC(C)N1C(=O)COC(=O)c1ccc(S(=O)(=O)N2CCCC2)cc1 (stereo not drawn)	0	-5
20	CC1CCN(C(=O)COC(=O)c2ccc(NC(=O)CC3SC(N4CCCC4)=NC3=O)cc2)CC1 (stereo not drawn)	4	2
21	Cc1ccccc1NC(=O)Cc1nc(COC(=O)c2nccnc2N)cs1	12	2
22	Cc1cc(C)n(-c2ccc(CSc3nnc(C4CC4)n3Cc3ccccc3)cc2)n1	16	2
23	N#Cc1cccc(C(=O)NCc2ccccc2)c1	7	-2
24	NC(=O)CSc1nnc(CSc2nc3ccccc3s2)n1Cc1ccccc1	17	10

# Record cards (already shown). Values in the order: BmaI1, BmaI1 counterscreen
# CC1CCCC(C)N1C(=O)COC(=O)c1ccc(S(=O)(=O)N2CCCC2)cc1 (stereo not drawn) reads 0, -5
# N#Cc1cccc(C(=O)NCc2ccccc2)c1 reads 7, -2

# Quoted from above, compounds 19 to 24
item	SMILES	BmaI1	BmaI1 counterscreen
19	CC1CCCC(C)N1C(=O)COC(=O)c1ccc(S(=O)(=O)N2CCCC2)cc1 (stereo not drawn)	0	-5
20	CC1CCN(C(=O)COC(=O)c2ccc(NC(=O)CC3SC(N4CCCC4)=NC3=O)cc2)CC1 (stereo not drawn)	4	2
21	Cc1ccccc1NC(=O)Cc1nc(COC(=O)c2nccnc2N)cs1	12	2
22	Cc1cc(C)n(-c2ccc(CSc3nnc(C4CC4)n3Cc3ccccc3)cc2)n1	16	2
23	N#Cc1cccc(C(=O)NCc2ccccc2)c1	7	-2
24	NC(=O)CSc1nnc(CSc2nc3ccccc3s2)n1Cc1ccccc1	17	10

# Other results:
item	SMILES	BmaI1	BmaI1 counterscreen
25	O=S(=O)(O)CCS	-6	-2
26	Cn1ccnc1Sc1ccc(S(=O)(=O)N2CCCC2)cn1	16	6
27	O=C(CCn1[nH]c(=O)ccc1=O)Nc1ccc(-c2cc3ccccc3o2)cc1	10	9
28	CCOc1cc(C(=O)O)c(N)cc1OC	50	42
29	CC(OC(=O)C12CC3CC(CC(O)(C3)C1)C2)C(=O)N(C)c1ccccc1 (stereo not drawn)	6	0
30	Cc1csc(=O)n1CC(=O)NC(C)C12CC3CC(CC(C3)C1)C2 (stereo not drawn)	14	4
31	CCn1c(=O)c(-c2c(C)nn(-c3ccccc3)c2C)nc2cc(S(=O)(=O)N(C)C)ccc21	-5	-12
32	Cn1c(O)c(C=Nc2ccc(Br)cc2)c2ccccc21	22	10
33	CC12CCC(=O)N1C(C(=O)OCn1nnc3ccccc3c1=O)CS2 (stereo not drawn)	14	0
34	CCN(CC)C(=O)c1ccc(NC(=O)Nc2ccccc2OC)cc1	10	8
35	CC1N=C(N)C(c2nc3ccccc3n2C)=C1O (stereo not drawn)	9	0
36	CC(=O)NCc1ccc(C(=O)COC(=O)CSc2ncnc3sccc23)o1	17	-2
37	CCn1c(O)c(/C=N/NS(=O)(=O)c2ccc(C)cc2)c(=O)n(CC)c1=S	76	28
38	CN(C)S(=O)(=O)c1ccc(NC(=O)c2ccc(=O)n(C)n2)cc1	9	0
39	Cc1ccc(C(=O)OCC(=O)c2ccccc2)cc1NC(=O)c1ccco1	10	9
40	CN1/C(=C\C=N\NC(N)=S)C(C)(C)c2ccccc21	85*	29*
41	Nc1ccccc1-c1n[nH]c(C2CC2)n1	32	20
42	COc1ccc(/C=c2\s/c(=C\C(=O)c3ccco3)[nH]c2=O)cc1O	104	60
43	O=C(Nc1ccccc1C(F)(F)F)c1ccccn1	3	12
44	CC(C)N(C(=O)CSc1nnc(NC2CC2)s1)c1ccccc1	2	-6
45	COc1cc(C(=O)NC2CCCNC2)cc(OC)c1OC (stereo not drawn)	-2	10
46	CC(C)NC(=O)CSc1n[nH]c(-c2ccncc2)n1	15	16
47	Cc1cc2oc(=O)cc(CN3CCCC(C)C3)c2cc1C(C)C (stereo not drawn)	11	4
48	CN(C)S(=O)(=O)c1ccc(N2CCCC2)c(C(=O)NC23CC4CC(CC(C4)C2)C3)c1	11	0
49	CCCCN(C)C1=Nc2cccc3cccc1c23	24	16
50	N#Cc1ccc(C(=O)N2CC=C(c3ccccc3)CC2)cc1	6	8
51	Cc1cc(C(=O)CSc2nc(N)cc(=O)[nH]2)c(C)n1C	8	4
52	CCN(CC)S(=O)(=O)c1ccc(/C=C/C(=O)OCc2nnc(-c3ccccc3)o2)cc1	10	2
53	CN=C(Cl)c1cccs1	8	2
54	CCCn1c(N)c(C(=O)CSc2nnc(-c3ccccc3)o2)c(=O)[nH]c1=O	-2	0
55	CCN(CC)CCOc1ccc(C(=C(Cl)c2ccccc2)c2ccccc2)cc1	-12	-3
56	COc1ccc(OCCOC(=O)C23CCC(=O)N2c2ccccc2C(=O)N3C2CC2)cc1 (stereo not drawn)	18	11
57	Cn1c(N)c(C(=O)c2ccc(Cl)c(S(=O)(=O)N3CCCC3)c2)c(=O)[nH]c1=O	-4	-2
58	c1ccc(OCc2nc(-c3ccccn3)n[nH]2)cc1	12	-11
59	CCOc1ncccc1C(=O)NCC12CC3CC(CC(C3)C1)C2	2	2
60	CCN1C(=O)C2(Cc3ccccc3N3CCCC32)C(=O)N(CC)C1=S (stereo not drawn)	20	1
61	O=C(CSc1nnc(-c2c[nH]c3ccccc23)o1)C12CC3CC(CC(C3)C1)C2	3	2
62	N#Cc1cccc(NC(=O)/C=C/c2ccco2)c1	2	-9
63	COC(=O)c1cc(COC(=O)c2ccc3ccccc3n2)oc1C	17	4
64	COc1ccc(C2CCCCCN2C(=O)Nc2ccccc2)cc1 (stereo not drawn)	13	6
65	C[C@@H](C(=O)NCc1ccccc1Cl)N1C(=O)C2CC=CCC2C1=O (stereo partly drawn)	12	3
66	COC(=O)COc1ncnc2sc3c(c12)CCC3	12	10
67	Cc1ccc(OCC(=O)/C=C2\N(C)c3ccccc3C2(C)C)cc1	4	2
68	CSc1ccccc1C(=O)NCC1COc2ccccc2O1 (stereo not drawn)	16	12
69	CCC(C)N(C(=O)CSc1nc(N)c2c3c(sc2n1)CCCC3)C1CCS(=O)(=O)C1 (stereo not drawn)	18	5
70	CCn1c(CCC(N)=O)n[nH]c1=S	26	30
71	COC(=O)c1cc(CO/N=C(\C)c2ccc3c(c2)OCCO3)oc1C	12	8
72	CC1(C)C2CCC1(CS(=O)(=O)N1CCCC1C(=O)O)C(=O)C2 (stereo not drawn)	4	12
73	Cn1c(SCC(=O)N/N=C2/CC3CCC2(C)C3(C)C)nnc1-c1ccco1 (stereo not drawn)	12	-4
74	Cn1c(=NC(=O)c2cccc(F)c2)sc2ccccc21	14	2
75	CC(=O)Nc1ccc(NC(=O)C(C)OC(=O)Cc2c[nH]c3ccccc23)cc1 (stereo not drawn)	6	2
76	Cc1cc(C)c2c(n1)sc1c(=O)n(C(C)C(=O)NC(N)=O)cnc12 (stereo not drawn)	0	2
77	COc1ccc2c(-c3ccccc3)cc(N3CCNC(=O)C3)nc2c1	17	10
78	CSc1ncccc1C(=O)NCCc1ccccc1	10	14
79	CN(CC(=O)NC(=O)Nc1ccc2c(c1)OCCO2)Cc1cccc(F)c1	28	12
80	COCCn1c(-c2ccncc2)nn(CO)c1=S	69	52

# Carrying on:
item	SMILES	BmaI1	BmaI1 counterscreen
81	CC1CN(Cn2nc(-c3ccc4c(c3)OCO4)oc2=S)CC(C)O1 (stereo not drawn)	22	12
82	NC(=O)c1cnccn1	6	22
83	Nc1[nH]c(=O)ncc1F	8	14
84	O=C(Cc1cn2ccsc2n1)N/N=C/c1cn(-c2ccccc2)nc1-c1cccs1	5	24
85	O=C(NCc1cn2cc(Cl)ccc2n1)c1ccccc1	10	1
86	N#Cc1ccc(CC(C#N)c2ccccc2)cc1 (stereo not drawn)	10	6
87	Cc1cc2oc(=O)cc(CN3CCN(C(=O)C4CCCO4)CC3)c2cc1Cl (stereo not drawn)	15	4
88	COc1ccc(Nc2ccccc2NC(=O)c2cc3ccccc3o2)cc1	21	-20
89	COC(=O)/C(C#N)=C/c1cccc(O)c1	-14	-16
90	CCOC(=O)C1=C(CSc2nnc(Cc3ccc(OC)cc3)n2N)NC(=O)NC1C (stereo not drawn)	14	4
91	CCn1cc(C(=O)N(C)Cc2cccc(Cl)c2)c(=O)c2ccc(C)nc21	6	-4
92	Cc1ccc(NC(=O)Cc2nc(COC(=O)C3CC(=O)N(Cc4ccco4)C3)cs2)cc1 (stereo not drawn)	19	-3
93	Cc1ccc(SCC(=O)c2ccc[nH]2)cc1C	14	12
94	O=C(CN1C(=O)S/C(=C\c2cccs2)C1=O)Nc1ccc(-c2nnc3n2CCCCC3)cc1	18	2
95	N#C/C(=C(/O)CN1CCCC1)c1nc(-c2ccccc2)cs1	12	11
96	CN(C)Cc1ccc(CNCc2ccccc2OC(F)F)cc1	-4	0
97	CCCn1c(SC(C)C(=O)c2ccc(NS(C)(=O)=O)cc2)n[nH]c1=O (stereo not drawn)	16	-1
98	C#C[C@]1(O)CC[C@H]2[C@@H]3CCc4cc(O)ccc4[C@H]3CC[C@@]21C	-6	2
99	CC(C)(C)OC(=O)N1CCC(C(=O)OCc2ccc(C#N)cc2)CC1	-7	-10
100	OC1CCCN(CC(O)COc2ccc3ccccc3c2)C1 (stereo not drawn)	9	0
101	Oc1ccc(/C=N/NC(=S)Nc2cccnc2)cc1	48	72
102	Cc1noc(C)c1C(=O)NCC(c1ccccc1Cl)c1c[nH]c2ccccc12 (stereo not drawn)	-14	-10
103	COc1cc(NC(=O)c2ccccc2)c(OC)cc1NCC(=O)Nc1ccc2c(c1)OCCO2	74	36
104	O=C(O)c1cccc(Oc2cccc(C(F)(F)F)c2)c1	10	8

# Brought forward from above: two compounds, followed by the next part.
item	SMILES	BmaI1	BmaI1 counterscreen
103	COc1cc(NC(=O)c2ccccc2)c(OC)cc1NCC(=O)Nc1ccc2c(c1)OCCO2	74	36
104	O=C(O)c1cccc(Oc2cccc(C(F)(F)F)c2)c1	10	8
105	CC(=O)Nc1sc2c(c1CN(C)C)CCCC2	22	10
106	COc1cccc(N=C2NNC(C)=C(C(=O)N(C)C)S2)c1	88*	14*
107	CCCCNS(=O)(=O)c1ccc2[nH]c(=S)[nH]c2c1	72	34
108	COc1cc(/C=C/C(=O)OCc2cn3cc(Cl)ccc3n2)ccc1O	58	24
109	CCC1Cc2c(nc3c4c(nc(N5CCOCC5)c(C#N)c24)NC(C)=N3)O1 (stereo not drawn)	2	4
110	CCS(=O)(=O)N1Cc2ccccc2CC1C(=O)OCC(=O)Nc1ccc(C(F)(F)F)cc1 (stereo not drawn)	9	-3
111	COc1ccc2c(CSc3nnc(-c4cccs4)n3N)cc(=O)oc2c1	12	12
112	C[C@]12C=CC(=O)C=C1CC[C@@H]1[C@@H]2[C@@H](O)C[C@@]2(C)[C@H]1CC[C@]2(O)C(=O)CO	-1	8
113	CCCN(S(=O)(=O)c1ccc(S(=O)(=O)N2CCCC2)cc1)S(=O)(=O)c1cccc(Cl)c1	17	14
114	Cc1oc2nc[nH]c(=O)c2c1C(=O)OC(C)C(=O)NC1CCCCC1 (stereo not drawn)	8	1
115	NC(=O)c1nn(CC(=O)N2CCN(Cc3nc4ccccc4s3)CC2)c(=O)c2ccccc12	15	11
116	Cc1noc(C)c1COC(=O)c1cccnc1SCC(=O)Nc1ccccc1OC(F)F	20	7
117	O=S(=O)(NCC(O)CN1CCOCC1)c1ccc2ccccc2c1 (stereo not drawn)	8	6
118	O=C(c1ccccn1)N1CCC(C(O)(c2ccccc2)c2ccccc2)CC1	10	4
119	CC1CCCC(C)N1NC(=O)c1cccc(N(C)C)c1 (stereo not drawn)	-19	-32
120	CN(CC(F)(F)C(F)F)S(=O)c1ccc2ccccc2c1 (stereo not drawn)	14	0
121	CN(C)S(=O)(=O)c1ccc(C(=O)C2=C3SC=C(c4ccc(F)cc4)N3CC2)cc1	26	16
122	Cc1noc(C)c1COC(=O)C1CSC2(C)CCC(=O)N12 (stereo not drawn)	6	6
123	O=C1c2ccccc2S(=O)(=O)NN1CCN1C(=O)c2ccccc2S1(=O)=O	4	6
124	CC(O)CNc1nc2ccccc2n1CC(O)COCc1ccco1 (stereo not drawn)	18	4
125	COC(=O)c1ccc(N2C(=O)Cc3c2nc(N)c2c(N)nc(N(C)C(C)C)c(C#N)c32)cc1	12	14

# Screening results as filed in PubChem BioAssay.
